Source: PubChem
AF4-AF9 inh: blocks AF4 peptide binding to human AF9; inhibition, % at 10 µM; AID 651704; AlphaScreen, biotin-AF4 peptide binding to FLAG-AF9; 350,000 compounds, 0.47% hits; P42568;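 active = every replicate reaching a set inhibition limit, whatever the replicate mean, cut at about 25% in these data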;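 note: 0% = plate neutral control median and 100% = total signal loss; the record names both 10 and 1 µM as test concentration; the first replicate is given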
Target sequence (P42568 whole entry, looked up): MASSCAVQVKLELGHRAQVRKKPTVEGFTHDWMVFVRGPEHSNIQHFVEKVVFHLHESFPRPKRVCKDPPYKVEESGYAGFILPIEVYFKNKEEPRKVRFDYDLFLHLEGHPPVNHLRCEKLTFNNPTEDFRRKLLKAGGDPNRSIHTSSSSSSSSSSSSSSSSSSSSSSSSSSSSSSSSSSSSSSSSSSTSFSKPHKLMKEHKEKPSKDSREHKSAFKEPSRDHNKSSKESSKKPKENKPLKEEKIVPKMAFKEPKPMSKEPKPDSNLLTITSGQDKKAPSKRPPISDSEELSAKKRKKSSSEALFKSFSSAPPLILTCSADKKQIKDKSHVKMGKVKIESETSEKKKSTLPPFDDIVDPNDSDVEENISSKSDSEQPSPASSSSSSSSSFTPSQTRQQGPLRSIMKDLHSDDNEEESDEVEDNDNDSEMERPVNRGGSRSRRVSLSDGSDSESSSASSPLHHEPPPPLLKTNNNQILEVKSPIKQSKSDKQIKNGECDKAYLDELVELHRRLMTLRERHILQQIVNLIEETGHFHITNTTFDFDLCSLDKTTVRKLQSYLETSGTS
rRNA inh HTS: inhibits bacterial ribosomal RNA function over humanized ribosomes; E. coli WT GFP vs humanized-ribosome RFP mutants, fluorescence, 24 h; active compounds read low; DMSO median 0, no signal -100; GFP signal change (wild-type ribosome), % (test concentration not listed); 350,000 compounds, 1.6% hits; AID 720706;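 active = significant combined selectivity score with lowered wild-type GFP, culture density cut under 30%, mutant RFP and density less affected; inactive = any of these conditions unmet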; note: one replicate is shown; some compounds called inactive have numbers as strong as hits
rRNA inh HTS OD600: also measured in rRNA inh HTS; calls as there; OD600 change, %; measured here: OD600 growth;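 optical density of the mix in the first replicate; 0 = DMSO median and -100 = no signal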
rRNA inh HTS RFP: also measured in rRNA inh HTS; calls as there; RFP signal change, %; measured here: RFP humanized mutant strains;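 first replicate; 0 = DMSO median and -100 = no signal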
The depositor's hits bear a star; & = joins results of further samples.

SMILES	AF4-AF9 inh	rRNA inh HTS	rRNA inh HTS OD600	rRNA inh HTS RFP
CC=Cc1ccc2n(c1=O)C[C@@H]1[C@@H](CO)[C@H](C(=O)N(C)C)N(C(=O)CC)[C@H]21 (mixture of isomers)	-5.2	1.1	8.0	-0.5
CN1c2ccc(-c3ccccc3F)cc2[C@H]2[C@H](CCN2C(=O)NC2CCCCC2)[C@H]1CO	11.9	-10.6	-59.1	12.9
O=C(NCC[C@H]1CC[C@H](NS(=O)(=O)c2ccc(F)cc2)[C@@H](CO)O1)c1ccccc1F	-0.7	-1.6	8.1	-1.7
COc1ccc(-c2ccc(C3[C@H]4CNC[C@@H]3N4C(=O)NC3CCCC3)cc2)cc1 (stereo partly specified)	-3.9	-0.3	7.7	-2.2
O=C(C1CCCCC1)N1CC(=O)N2[C@H](CO)[C@H](c3ccc(-c4ccccc4F)cc3)[C@H]2C1	-2.3	-9.7	-39.9	0.2
O=C(Nc1ccc(C(F)(F)F)cc1)N1C[C@@H]2N[C@H](C1)C2c1ccc(/C=C/c2ccccc2)cc1 (stereo partly specified)	-4.4&9.0	-59.5&-56.5	-69.6&-79.2	-13.1&-11.7
COc1cccc(-c2ccc(C3[C@@H]4CN(C(=O)Cc5ccccc5)C[C@H]3N4)cc2)c1 (stereo partly specified)	-2.6	-11.3	-45.5	3.0
O=C(C1CCCC1)N1CC[C@H]2[C@H](CO)Nc3ccc(Br)cc3[C@H]21	4.1	1.3	4.2	8.4
O=C(c1ccncc1)N1CC(=O)N2[C@H](CO)[C@H](c3ccc(-c4ccccc4F)cc3)[C@@H]2C1	-5.2	3.8	-1.8	-0.2
CN1C(=O)c2cc(NC(=O)Nc3ccc(Cl)cc3)ccc2OC[C@@H]2O[C@H](CC(=O)O)CC[C@@H]21	-2.4	-4.3	6.9	-1.3
C[C@H]1CN([C@@H](C)CO)S(=O)(=O)c2ccc(-c3ccccc3F)cc2O[C@@H]1CN(C)Cc1cncnc1	4.3	-18.3	-25.4	-4.8
Cc1noc(C)c1S(=O)(=O)Nc1ccc2c(c1)C(=O)N([C@@H](C)CO)C[C@H](C)[C@H](CN(C)C(=O)c1ccccc1)OCCCC[C@@H](C)O2	-8.4	-3.7	1.8	-3.4

Laid out differently: results already given
Fields – AF4-AF9 inh, rRNA inh HTS, rRNA inh HTS OD600, rRNA inh HTS RFP
> COc1ccc(-c2ccc(C3[C@H]4CNC[C@@H]3N4C(=O)NC3CCCC3)cc2)cc1 (stereo partly specified)
  -3.9, -0.3, 7.7, -2.2
> O=C(C1CCCCC1)N1CC(=O)N2[C@H](CO)[C@H](c3ccc(-c4ccccc4F)cc3)[C@H]2C1
  -2.3, -9.7, -39.9, 0.2
> O=C(Nc1ccc(C(F)(F)F)cc1)N1C[C@@H]2N[C@H](C1)C2c1ccc(/C=C/c2ccccc2)cc1 (stereo partly specified)
  -4.4&9.0, -59.5&-56.5, -69.6&-79.2, -13.1&-11.7

The results go on:
SMILES	AF4-AF9 inh	rRNA inh HTS	rRNA inh HTS OD600	rRNA inh HTS RFP
N#C[C@H]1[C@H](c2ccc(C#CC3CCCC3)cc2)[C@@H](CO)N1C(=O)c1cccc(F)c1	-1.3	2.5	5.0	3.6
N#Cc1ccc(-c2ccc3c(c2)[C@@H]2[C@@H](CCN2C(=O)C2CCCC2)[C@@H](CO)N3)cc1	-4.1	-35.2	-60.5	16.4
C[C@H](CO)N1C[C@H](C)[C@@H](CN(C)C(=O)Nc2ccccc2)OCCCC[C@H](C)Oc2ccc(NC(=O)CCCN(C)C)cc2C1=O	0.2	0.3	-1.8	0.5
CC(=O)N1[C@H](CO)[C@H]2c3ccccc3N(C(=O)c3ccc(F)cc3)C[C@H]21	-1.2	2.3	17.4	-0.7
CCCC#Cc1ccc([C@H]2[C@@H](CO)N3C(=O)CN(C(=O)CN4CCOCC4)C[C@H]23)cc1	-8.9	3.0	6.7	3.7
COc1ccc2c3c(n(C)c2c1)[C@H](CO)NCC31CN(Cc2ccc(-c3ccccn3)cc2)C1	46.5*	0.1	1.5	3.3
C[C@@H]1CCCCO[C@@H](CN(C)Cc2ccc3c(c2)OCO3)[C@@H](C)CN([C@@H](C)CO)C(=O)c2cc(NS(=O)(=O)c3ccccc3)ccc2O1	9.7	0.9	-7.6	5.1
O=C(c1cccc(F)c1)N1CC(=O)N2[C@@H](CO)[C@H](c3ccc(C4=CCCC4)cc3)[C@@H]2C1	-1.0	4.2	7.6	-3.4
C[C@@H]1CCCCO[C@@H](CN(C)Cc2ccccc2)[C@@H](C)CN([C@@H](C)CO)C(=O)c2cc(NS(=O)(=O)c3ccc(Cl)cc3)ccc2O1	2.6	-5.9	-30.9	16.5
O=C(C[C@@H]1CC[C@H]2[C@@H](COC[C@H](O)CN2S(=O)(=O)c2ccc(Cl)cc2)O1)NCCN1CCCCC1	-1.4	4.3	-3.4	-0.5
N#C[C@@H]1[C@H](c2ccc(C3=CCCC3)cc2)[C@H](CO)N1C(=O)NC1CCCCC1	0.9	1.8	10.1	0.5
O=C(CC1CC1)N1CC(=O)N2[C@@H](CO)[C@H](c3ccc(C#Cc4ccc(F)cc4)cc3)[C@@H]2C1	-2.4	-21.2	-63.5	7.8

2 of these compounds, reformatted.
C[C@@H]1CCCCO[C@@H](CN(C)Cc2ccccc2)[C@@H](C)CN([C@@H](C)CO)C(=O)c2cc(NS(=O)(=O)c3ccc(Cl)cc3)ccc2O1
  AF4-AF9 inh = 2.6
  rRNA inh HTS = -5.9
  rRNA inh HTS OD600 = -30.9
  rRNA inh HTS RFP = 16.5
O=C(C[C@@H]1CC[C@H]2[C@@H](COC[C@H](O)CN2S(=O)(=O)c2ccc(Cl)cc2)O1)NCCN1CCCCC1
  AF4-AF9 inh = -1.4
  rRNA inh HTS = 4.3
  rRNA inh HTS OD600 = -3.4
  rRNA inh HTS RFP = -0.5

The results go on:
SMILES	AF4-AF9 inh	rRNA inh HTS	rRNA inh HTS OD600	rRNA inh HTS RFP
O=C(CCN1CCCCC1)NCC[C@H]1CC[C@@H](NC(=O)C2CCCCC2)[C@H](CO)O1	-1.6	2.1	6.2	-2.7
O=C(Cc1ccccn1)N1CC(=O)N2[C@@H](CO)[C@@H](c3ccc(C#CC4CC4)cc3)[C@@H]2C1	0.7	0.4	-2.9	-0.8
C[C@H](CO)N1C[C@H](C)[C@@H](CN(C)C(=O)NC2CCCCC2)OCCCC[C@H](C)Oc2ccc(N(C)C)cc2C1=O	3.4	0.4	2.0	1.4
Cc1noc(C)c1NC(=O)Nc1ccc2c(c1)C(=O)N([C@H](C)CO)C[C@H](C)[C@H](CN(C)S(=O)(=O)c1ccc(F)cc1)OCCCC[C@H](C)O2	3.4	3.4	-5.2	-0.7
COc1ccc(-c2ccc(C3[C@@H]4CN(C(=O)Nc5cccc(F)c5)C[C@H]3N4)cc2)cc1 (stereo partly specified)	8.5&-1.5	-53.2	-76.6	-8.5
CCCN1[C@@H]2Cn3c(ccc(-c4cccc(F)c4)c3=O)[C@H]1[C@@H](C(=O)N(C)C)[C@@H]2CO	0.2	3.1	-3.3	0.8
O=C(C1CCCC1)N1CC(=O)N2[C@H](CO)[C@@H](c3ccc(C#Cc4cccc(F)c4)cc3)[C@H]2C1	1.2	-43.8	-74.3	-1.3
COc1ccc2c3c(n(C)c2c1)[C@@H](CO)N(S(=O)(=O)c1ccc(C)cc1)CC31CCN(C)CC1	14.7	0.9	4.4	-2.4
O=C(C1CCCCC1)N1CC2(C1)[C@H](c1ccccc1)[C@H](CO)N2CC1CCCC1	4.2	-19.9	-51.0	39.2
C[C@H]1CN([C@@H](C)CO)C(=O)c2cc(NC(=O)CCCN(C)C)ccc2O[C@@H]1CN(C)C(=O)NC1CCCCC1	-3.5	4.6	2.4	0.4
O=C(C1CCC1)N1CC2(C1)[C@H](c1ccccc1)[C@@H](CO)N2CCC(F)(F)F	0.2	0.4	0.3	0.9
COc1ccc2c3c(n(C)c2c1)[C@@H](CO)N(C(=O)CN(C)C)CC31CCN(S(C)(=O)=O)CC1	3.1	6.2	19.8	-1.5

(list continues)
SMILES	AF4-AF9 inh	rRNA inh HTS	rRNA inh HTS OD600	rRNA inh HTS RFP
CCCN1[C@@H]2c3ccc(-c4ccccc4)c(=O)n3C[C@@H]2[C@@H](CO)[C@@H]1C(=O)N(C)C	-2.0	0.8	-8.6	-2.7
NCC[C@@H]1CC[C@H](NC(=O)C2CC2)[C@@H](CO)O1	-0.7	1.6	4.1	0.1
CO[C@@H]1CN(C)C(=O)c2cc(NC(=O)C3CC3)ccc2OC[C@@H](C)N(C(=O)Cc2ccccn2)C[C@@H]1C	-10.0	-0.3	-1.3	-3.3
COc1ccc(NC(=O)Nc2ccc3c(c2)C(=O)N([C@H](C)CO)C[C@@H](C)[C@@H](CN(C)Cc2ccc(C(F)(F)F)cc2)OCCCC[C@H](C)O3)cc1	-5.5	1.8	11.3	4.0
CC(C)NC(=O)Nc1ccc2c(c1)CC(=O)N([C@H](C)CO)C[C@H](C)[C@@H](CN(C)S(C)(=O)=O)O2	2.8	11.0	20.1	-0.4
O=C(C[C@H]1C[C@@H]2c3cc(NS(=O)(=O)c4ccc(F)cc4)ccc3O[C@@H]2[C@@H](CO)O1)N1CCOCC1	-1.4	-0.6	-4.7	1.4
COCC(=O)N1CCC2(CC1)CN(Cc1cccc(Cl)c1)[C@H](CO)c1[nH]c3cc(OC)ccc3c12	-2.4	1.7	5.6	0.8
CN1c2ccc(-c3ccccc3F)cc2[C@@H]2[C@@H](CCN2C(=O)NC2CCCCC2)[C@H]1CO	8.9	-37.0	-52.6	24.4
COCC(=O)N1CC(=O)N2[C@@H](CO)[C@H](c3ccc(C#CC4CCCCC4)cc3)[C@@H]2C1	3.7	4.2	-4.6	6.1
COc1ccccc1NC(=O)N1CC(=O)N2[C@@H](CO)[C@@H](c3ccc(C#Cc4ccc(F)cc4)cc3)[C@@H]2C1	-0.8	-0.2	-50.4	29.8
COc1ccc2c3c(n(C)c2c1)[C@@H](CO)N(Cc1ccccc1F)CC31CN(C(=O)C2CCC2)C1	-7.3	-3.2	-27.4	2.3
COCC(=O)Nc1ccc2c(c1)C(=O)N(C)C[C@@H](OC)[C@@H](C)CN(CCc1ccccc1)[C@H](C)CO2	4.0	-1.2	0.5	-0.7

Next section:
SMILES	AF4-AF9 inh	rRNA inh HTS	rRNA inh HTS OD600	rRNA inh HTS RFP
C[C@@H]1CN([C@H](C)CO)C(=O)Cc2cc(NC(=O)Nc3ccccc3)ccc2O[C@@H]1CN(C)S(=O)(=O)c1ccc(Cl)cc1	0.1	0.7	7.9	4.8
O=C(C1CCOCC1)N1CC(=O)N2[C@H](CO)[C@H](c3ccc(C#CC4CCCC4)cc3)[C@H]2C1	0.9	2.7	10.1	3.3
COC(=O)C[C@H]1CC[C@H]2[C@@H](COc3ccc(NC(=O)C4CC4)cc3C(=O)N2C)O1	-0.4	3.8	4.7	-0.2
Cc1ccc(S(=O)(=O)Nc2ccc3c(c2)C(=O)N([C@@H](C)CO)C[C@@H](C)[C@@H](CN(C)C(=O)CCC(F)(F)F)OCCCC[C@@H](C)O3)cc1	-1.7	-0.5	-4.1	1.6
Cc1ccccc1-c1ccc(C2[C@@H]3CN(C(=O)C4CCCCC4)C[C@H]2N3)cc1 (stereo partly specified)	0.0&-1.9	-60.2&-59.3	-75.9&-76.9	-16.4&-15.7
O=C(C[C@H]1CC[C@@H](NC(=O)CC2CC2)[C@@H](CO)O1)NCc1ccccc1	-8.0	4.0	1.8	-0.3
C/C=C/c1ccccc1[C@@H]1[C@@H](CO)N(C(=O)c2cccnc2)[C@H]1C#N	-1.3	2.3	-1.3	-0.5
C[C@@H]1CCCCO[C@@H](CN(C)C(=O)Nc2ccccc2)[C@H](C)CN([C@@H](C)CO)C(=O)c2cc(NC(=O)NC3CCCCC3)ccc2O1	-3.0	2.3	7.3	2.8
COC(=O)c1ccc(CN2CC(=O)N3[C@@H](CO)[C@H](c4ccc(-c5cccnc5)cc4)[C@@H]3C2)cc1	0.9	2.1	1.7	-2.5
O=C(C[C@H]1CC[C@H]2[C@@H](COC[C@@H](O)CN2CC2CCCC2)O1)NCc1ccc(Cl)cc1	-0.7	-62.2	-81.3	-15.9
COCC(=O)N1CC(=O)N2[C@H](C1)[C@@H](c1ccc(C#Cc3cccc(OC)c3)cc1)[C@@H]2CO	-2.5	-3.4	-4.2	8.7
COc1ccc2c3c([nH]c2c1)[C@H](CO)N(S(C)(=O)=O)CC31CCN(Cc2cccc(F)c2)CC1	36.4*	-1.2	-17.4	8.0

(list continues)
SMILES	AF4-AF9 inh	rRNA inh HTS	rRNA inh HTS OD600	rRNA inh HTS RFP
O=C(N[C@H]1C=C[C@@H](CC(=O)N2CCc3ccccc3C2)O[C@@H]1CO)C1CCOCC1	-2.8	6.4	7.6	-3.3
COc1ccc2c3c([nH]c2c1)[C@@H](CO)N(C(=O)CN(C)C)CC31CN(Cc2ccncc2)C1	9.9	2.3	4.7	-0.9
COc1ccccc1-c1ccc(C2[C@@H]3CN(C(=O)c4cccnc4)C[C@H]2N3)cc1 (stereo partly specified)	-4.7&-6.1	3.9&-3.7	11.0&-6.7	-2.7&-3.4
O=C(C1CCC1)N1CC(=O)N2[C@H](C1)[C@H](c1ccc(C#Cc3cccc(F)c3)cc1)[C@@H]2CO	-4.8	-53.9	-75.5	-12.6
C[C@@H]1CCCCO[C@@H](CN(C)S(=O)(=O)c2ccc(Cl)cc2)[C@@H](C)CN([C@H](C)CO)C(=O)c2cc(NC(=O)Nc3cccc4ccccc34)ccc2O1	-2.6	-0.5	0.3	-1.9
O=C1CNC[C@H]2[C@@H](c3ccc(C4=CCCC4)cc3)[C@H](CO)N12	-2.0	7.2	23.1	0.9

These rows are one share of the data; the hit share may differ from the screen's.
